# Assay outcomes as filed in PubChem.
# GIV Gai3 FP: GIV-Galpha-i interaction inhibition; Galpha-i3/FITC-GIV peptide fluorescence polarization, 90 min; hits give low values; scaled: aluminum fluoride 0%, vehicle 100%; percent of control (FP), % (no concentration beside the values); 210,000 compounds, 0.42% hits; AID 1224905; P08753;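 active = replicate mean at 85% of control or lower, very high polarization wells dropped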;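 also: wells of about 15 µL received 100 nL stock; the first replicate is given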
# Target sequence (P08753 whole entry, looked up): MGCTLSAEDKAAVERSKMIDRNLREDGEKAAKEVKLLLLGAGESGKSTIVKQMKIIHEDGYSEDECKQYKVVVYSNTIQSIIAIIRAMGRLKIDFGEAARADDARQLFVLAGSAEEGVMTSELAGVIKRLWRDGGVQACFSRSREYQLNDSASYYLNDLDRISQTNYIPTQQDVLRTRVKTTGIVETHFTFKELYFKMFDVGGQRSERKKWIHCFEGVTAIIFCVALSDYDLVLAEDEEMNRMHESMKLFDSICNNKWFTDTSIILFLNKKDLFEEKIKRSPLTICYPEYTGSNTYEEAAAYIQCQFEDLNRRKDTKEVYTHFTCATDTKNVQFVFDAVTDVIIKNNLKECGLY
# The depositor's hits bear a star.
structure | GIV Gai3 FP
Cc1ccc(-c2cc(C(=O)NCCCN3CCc4ccccc4C3)c(C)[nH]2)cc1C | 124
CNC(=O)c1c(NC(=O)c2ccc3c(c2)OCCO3)sc2c1CCCC2 | 107
Cn1c(CN2CCN(C(=O)Nc3cccc(Cl)c3)CC2)nc2cc(C(=O)N3CCCC3)ccc21 | 101
O=C1OC(Oc2ccccc2)(c2ccccc2)c2ccccc21 (configuration not stated) | 106
Cc1csc(NC(=O)NCCCSc2ncccn2)n1 | 103
Cc1[nH]c(-c2nnc(C3CC3)o2)c(C)c1S(=O)(=O)NC1CCCC1 | 104
COCC(=O)N1CCCCC1CCN1CCCCC1 (configuration not stated) | 98
Cc1ccc(NC(=O)N(C)CCc2noc(C(=O)NCc3ccc(Cl)cc3)n2)cc1Cl | 103

# Three compounds from above, sorted by SMILES length, high to low.
structure | GIV Gai3 FP
Cc1ccc(-c2cc(C(=O)NCCCN3CCc4ccccc4C3)c(C)[nH]2)cc1C | 124
Cc1[nH]c(-c2nnc(C3CC3)o2)c(C)c1S(=O)(=O)NC1CCCC1 | 104
COCC(=O)N1CCCCC1CCN1CCCCC1 (configuration not stated) | 98

# Further compounds
structure | GIV Gai3 FP
CCN(CC)S(=O)(=O)c1ccc2c(c1)N(CC(=O)NCCc1ccc(Cl)cc1)C(=O)CO2 | 107
COc1ccc(-c2nnc(-c3ccccc3)o2)cc1S(=O)(=O)Nc1ccccc1O | 107
O=C1CN(Cc2cccc(Cl)c2)S(=O)(=O)c2ccccc2N1Cc1cccc(F)c1 | 105
O=C(c1ccco1)N1CCC(Oc2cc(N3CCCCC3)ncn2)C1 (configuration not stated) | 91
CC(C)c1ccc(N2C(=O)CSC23C(=O)Nc2ccccc23)cc1 (configuration not stated) | 100
CCOC(=O)C1=CN(Cc2ccc(OC)c(OC)c2)C=C(C(=O)OCC)C1c1ccc([N+](=O)[O-])cc1 | 110
COc1ccc(NC(=O)CSc2nc3c(sc(=S)n3-c3ccccc3)c(=O)[nH]2)c(OC)c1 | 107
CCCCOC(=O)c1ccc(Nc2c(C(=O)OCC)cnc3c(C)cc(C)cc23)cc1 | 104

# Some of these compounds in order of their number in GIV Gai3 FP, rising:
structure | GIV Gai3 FP
COCC(=O)N1CCCCC1CCN1CCCCC1 (configuration not stated) | 98
Cc1csc(NC(=O)NCCCSc2ncccn2)n1 | 103
Cc1[nH]c(-c2nnc(C3CC3)o2)c(C)c1S(=O)(=O)NC1CCCC1 | 104
O=C1OC(Oc2ccccc2)(c2ccccc2)c2ccccc21 (configuration not stated) | 106
CCN(CC)S(=O)(=O)c1ccc2c(c1)N(CC(=O)NCCc1ccc(Cl)cc1)C(=O)CO2 | 107
CCOC(=O)C1=CN(Cc2ccc(OC)c(OC)c2)C=C(C(=O)OCC)C1c1ccc([N+](=O)[O-])cc1 | 110

# (cont.)
structure | GIV Gai3 FP
CCOC(=O)C1=C(C)N=c2s/c(=C\c3cccc(OCC(=O)O)c3)c(=O)n2C1c1ccccc1OC (configuration not stated) | 110
CCCOc1ccc(/C=C2\C(=O)N(c3ccc(Cl)c(C(=O)O)c3)N=C2C)cc1OC | 115
Cn1c(=O)c2nc(S(=O)(=O)CCC(=O)Nc3ccc(F)c(Cl)c3)n(C)c2n(C)c1=O | 105
CCCN1CCN(C(=O)c2sc3ncnc(N(C)c4ccccc4)c3c2C)CC1 | 105
CCC(C)NC(=O)c1c[nH]c2ccc(S(=O)(=O)N(CCCN3CCOCC3)Cc3ccco3)cc2c1=O (configuration not stated) | 113
C=CCN1C(=O)/C(=C2/Sc3ccc(Cl)cc3N2C)SC1=S | 108
CCn1cc(Br)c(C(=O)OCC23COC4c5ccccc5OC(C)(CC2C)C4C3C)n1 (configuration not stated) | 113
CCOC(=O)c1c(NC(=O)c2ccc3c(c2)OCCO3)sc2c1CC(C)(C)NC2(C)C | 95
COC(=O)c1ccc(C(=O)OC)c(NC(=O)c2cc3cccc(OC)c3oc2=O)c1 | 103
Cc1nc(-c2csc(S(=O)(=O)N3CCCC(C(=O)NC4CCCCC4)C3)c2)no1 (configuration not stated) | 106
CCOc1ccc(N2C(=O)/C(=C\c3ccc(OC)c(O)c3)S(=O)(=O)C2c2cccc([N+](=O)[O-])c2)cc1 (configuration not stated) | 118
CCOC(=O)/C(C#N)=C\N1CCc2ccccc2C1 | 119
O=C1N=C2N(CCN3CCCCC3)c3ccccc3N2/C1=C\c1ccc([N+](=O)[O-])o1 | 113
CN1CC(=O)N(CC(=O)Nc2nc3ccc(Cl)cc3s2)c2ccccc2C1=O | 106
CC(=O)N1CCC(C(=O)NCc2ccccc2)(N(C(=O)c2ccc(C)cc2)c2ccc(F)cc2F)CC1 | 106
CCOC(=O)c1sc2ncnc(NCCCN3CCOCC3)c2c1C | 108
CC(=O)c1cccc(N2C(=O)C3C4c5ccccc5C(c5ccccc54)C3C2=O)c1 (configuration not stated) | 102
CCOc1ccc(N2C(=O)C(C)SC23C(=O)N(CN2CCOCC2)c2ccccc23)cc1 (configuration not stated) | 108
O=C1c2ccccc2C(=O)N1CC1c2ccccc2CCN1C(=O)CCN1C(=O)C2C3C=CC(C3)C2C1=O (configuration not stated) | 100
O=c1[nH]c(NCCCO)nc2c1C1(CCCCC1)Cc1ccccc1-2 | 109
O=C(NCc1csc(-c2ccccc2)n1)[C@H]1CSCN1C(=O)c1ccccc1F | 106
COc1ccc(C2Oc3ccc(Cl)cc3C3CC(c4cccc(OC)c4)=NN32)cc1 (configuration not stated) | 110
O=C(c1csc(-c2cccnc2)n1)N1CCCCC1 | 106
Cc1cc(C(=O)CN2C(=O)C3(OCCO3)c3cc([N+](=O)[O-])ccc32)c(C)o1 | 110
CC(=O)Nc1nc(N2CCC(C(=O)NC3CC3)CC2)sc1C(=O)N1CCCC1 | 100
CCOc1ccc2c(c1)-c1c(ssc1=Nc1ccc(C)cc1)C(C)(C)N2C | 112
CCOC(=O)C1=C(C)NC2=C(C(=O)C(C(=O)OCC)C(c3cccc(OC)c3)C2)C1c1ccc(O)c(OC)c1 (configuration not stated) | 104
O=C(CSc1nc2ccccc2[nH]1)Nc1nc2ccc([N+](=O)[O-])cc2s1 | 107
CCOC(=O)c1c(NC(=O)CSc2nnc(CNC(=O)COc3ccc(Cl)cc3)n2C)sc2c1CCCCC2 | 101
COc1ccc(/C=N/n2c(N(C(C)=O)C(C)=O)nc(-c3ccccc3)c2-c2ccccc2)cc1 | 103
CC(C)c1nnc2ccc(N3CCN(C(C)C)CC3)nn12 | 98
O=C(Nc1nc2ccccc2n1CCOc1ccccc1)c1ccccc1F | 102
COc1ccc(C2(O)CN(c3ccccc3C)C3=[N+]2CCCS3)cc1 (configuration not stated) | 104
CCOc1ccccc1N/C(SCc1ccc(OC(F)(F)F)cc1)=C(/C#N)C(=O)NCc1ccccc1 | 108
CCOC(=O)c1c(CN2CCCCC2)n(C)c2cc(Br)c(OC(C)=O)cc12 | 103
COc1ccc2[nH]c3nc4cc(Cl)c(Cl)cc4nc3c2c1 | 108
COc1cccc(NC(=O)N2CCN(Cc3nc4cc(C(=O)N5CCCC5)ccc4n3C)CC2)c1 | 105
Cn1c(=O)c(-c2ccccc2)c2c3c(cccc31)C(=O)c1ccccc1-2 | 110
COc1ccccc1CNC(=O)Cn1cnc2sc(C(=O)Nc3ccc(C)cc3Br)c(C)c2c1=O | 97
Cn1c(N2CCN(C(=O)C3CCCC3)CC2)cc(=O)n(C)c1=O | 103
COCCOC(=O)C1=C(N)OC2=C(C(=O)CC(C)(C)C2)C1c1ccccc1F (configuration not stated) | 108
CCCCC(C(=O)OC)N1C(=O)C2C3c4ccccc4C(c4ccccc43)C2C1=O (configuration not stated) | 110
CCC1NC(C(=O)O)Cc2c1[nH]c1ccccc21 (configuration not stated) | 108
c1cn(-c2cc(N3CCSCC3)ncn2)cn1 | 106
CC1=C(C(=O)OCc2ccccc2)C(c2ccc(Cl)cc2)C(C#N)=C(SCC(=O)c2ccccc2)N1 (configuration not stated) | 104
CC1CCN(S(=O)(=O)c2nn(C)cc2C(=O)NCC2CC2)CC1 | 99
COc1ccc(C(=O)Oc2ccc3c(=O)c(Oc4cccc(C)c4)coc3c2)cc1OC | 111
COc1ccccc1[C@@H]1[C@@H](C(C)=O)N2c3ccccc3C=C[C@@H]2C1(C#N)C#N | 148
CC(=O)N(CN1C(=O)C2C3c4ccccc4C(c4ccccc43)C2C1=O)c1ccc2c(c1)oc1ccccc12 (configuration not stated) | 110
CC1(C)CC(=O)C(C(C2=C(O)CC(C)(C)CC2=O)c2cc(Br)c(O)c(Br)c2)C(=O)C1 (configuration not stated) | 106
CCOC(CNC(=O)c1ccc2c(c1)ncn2-c1ccc(OCc2ccccc2)cc1)OCC | 104
CCOC(=O)c1nnn(-c2nonc2N)c1CN1CCCCC1 | 122
Cc1nc(-c2cc3ccccc3oc2=O)cc2c1c(=O)oc1ccccc12 | 106
COCC(=O)Nc1ccccc1-c1ccc2cc(C)ccc2n1 | 106
Cc1noc(-c2ccc(S(=O)(=O)N3CCC4(CC3)OCCO4)s2)c1C | 105
NC(=O)NN=C1c2cc(S(=O)(=O)N3CCOCC3)ccc2-c2ccc(S(=O)(=O)N3CCOCC3)cc21 | 107

# Next part.
structure | GIV Gai3 FP
O=S(=O)(NCc1cccnc1-c1ccc(F)cc1)c1ccc(Br)cc1 | 98
Cc1ccc(-c2ccc(=O)n(CCc3nc(-c4ccc(F)cc4)no3)n2)cc1C | 102
CCOC(=O)c1cnc2c(ccc3ccccc32)c1Nc1ccc(C(=O)OC)cc1 | 110
CC(C)CCn1nc2c(S(=O)(=O)N3CCc4ccccc4C3)cccn2c1=O | 111
CCOC(=O)CSc1nc2ccccc2c2nc3ccccc3n12 | 119
O=S(=O)(c1ccc2c(c1)CCCC2)N1CCCC1c1nc(-c2ccc(F)cc2)no1 (configuration not stated) | 97
CCOc1ccc2nc(-n3nc(C)c4c3NC(=O)CC4c3ccsc3)sc2c1 (configuration not stated) | 104
CCCCNC(=O)c1sc2nc(C)nc(N3CCN(C)CC3)c2c1C | 97
COc1cccc(NS(=O)(=O)c2cc(-c3c(C)noc3NC(C)=O)ccc2C)c1 | 102
CCOC(=O)C1=C(C)NC2=C(C(=O)C(C(=O)OCC)C(c3ccc(OC)cc3)C2)C1c1cc(OC)ccc1OC (configuration not stated) | 109
Cc1cccc(OCC(=O)Nc2ccccc2-c2ccc3ccccc3n2)c1 | 105
O=C(NCCSCc1ccccc1)c1ccc(N2CC3CC(C2)c2cccc(=O)n2C3)c(NC(=O)c2ccc(F)cc2)c1 (configuration not stated) | 107
CC(=O)c1ccc(NC(=O)c2cc3nc(-c4ccc([N+](=O)[O-])cc4)cc(C(F)(F)F)n3n2)cc1 | 103
O=C(NCC(=O)N1CCN(c2ccccc2)CC1)c1c(F)cccc1F | 109
CCOc1cc(C(c2c(C)n(C)n(-c3ccccc3)c2=O)c2c(C)n(C)n(-c3ccccc3)c2=O)cc(Br)c1O | 106
CC1CC(Nc2ccccc2)c2ccccc2N1C(=O)c1cccnc1 (configuration not stated) | 107
CCCCc1nc2c3ccccc3n(CC(=O)c3cc(C)c(C)cc3C)c(=O)n2n1 | 98
COC(=O)C1=C(C(=O)OC)SC(=C2C(=S)C(C)(C)N(C(C)=O)c3c(C)cc(C)cc32)S1 | 108
Cc1nnc2sc(SCC(=O)N3CCCC3)nn2c1=O | 109
CCCCN(C)C(=O)c1cc(NS(C)(=O)=O)cnc1N1CCNCC1 | 101
COc1ccc(OC)c(CNC(=O)c2cccc(-c3cnc(N4CCCCC4)nc3)c2)c1 | 102
Cc1ccc(S(=O)(=O)N(CC(O)Cn2c3ccccc3c3ccccc32)c2ccccc2C)cc1 (configuration not stated) | 106
O=C(NC(Cc1c[nH]c2ccccc12)C(=O)NCc1ccccc1)c1ccccc1 (configuration not stated) | 99
CSC1=NC(=Nc2ccccc2C)C2(CCC(C(C)(C)C)CC2)N1c1cccc(Cl)c1 (configuration not stated) | 122
C=CCn1c(SCc2nc(-c3cccc(Cl)c3)no2)nc2cc3c(cc2c1=O)OCO3 | 108
CCOC(=O)C1=C(C)N=c2s/c(=C/c3cc(OC)c(O)cc3Br)c(=O)n2C1c1ccc2c(c1)OCO2 (configuration not stated) | 209
CCCS(=O)(=O)c1c(S(=O)(=O)CCC)c2ccccn2c1C(=O)c1ccc(C)cc1C | 109
Cc1cccc(-n2c(=O)c3c(n4cnnc24)-c2ccccc2CC32CCCCC2)c1 | 131
Cc1ccc(Sc2ccc(C3(c4ccccc4)C=Cc4c(ccc5ccccc45)O3)cc2)cc1 (configuration not stated) | 103
Cc1onc(-c2ccc(Br)cc2)c1C(=O)NCCC1=CCCCC1 | 108
COc1ccc(C2(O)CN(c3ccccc3)C3=[N+]2CCS3)cc1 (configuration not stated) | 104
CCc1onc(C)c1C1CCCN1Cc1cn(CC)c2ccc(OC)cc12 (configuration not stated) | 120
Cc1cc(C)nc(NS(=O)(=O)c2ccc(NC(=O)c3ccco3)cc2)n1 | 112
NC(=O)C1CCN(C(=O)c2ccc3c(=O)n(Cc4ccco4)c(SCC(=O)NCc4ccccc4Cl)nc3c2)CC1 | 111
COc1cccc(C2C(C#N)=C(N)Oc3n[nH]c(C(C)(C)C)c32)c1OC(=O)N1CCOCC1 (configuration not stated) | 113
CCOc1ccccc1C1CC(=O)Nc2c1cnn2-c1nc2ccccc2s1 (configuration not stated) | 97
CCC(=O)N1c2ccccc2NC2=C(C(=O)CC(C)(C)C2)C1c1ccc(C)cc1 (configuration not stated) | 103
Cc1nc(CNC(=O)[C@H]2CSCN2C(=O)Nc2ccc(F)cc2)cs1 | 100
COc1cc(NC(=O)c2sc3nc(C)nc(N4CCN(C)CC4)c3c2C)cc(OC)c1OC | 105
CC(=O)Nc1c(C)nn(-c2ccc(Cl)cc2)c1N1CCC(C(=O)NC2CCCC2)CC1 | 106
COC(=O)c1cc(C(=O)OC)cc(-n2c(/C=C\c3ccc(F)c(F)c3)nc3ccccc3c2=O)c1 | 108
CCOC(=O)C1=c2s/c(=C/c3ccc(C)cc3)c(=O)n2C(N)=C(C#N)C1c1ccc(C)cc1 (configuration not stated) | 101
FC(F)(F)C1(C(F)(F)F)N=C(c2ccco2)OC(N2CCCCC2)=N1 | 115

# A portion of the library, so the mix of outcomes need not match the whole.
